Compound activity from PubChem BioAssay.
Vif A3G: inhibitors of Vif binding to APOBEC3G peptide, primary screen, biochemical, TR-FRET, GST-Vif 1-94, biotin-A3G peptide, dose response retest (AID 1117319). TR-FRET GST-Vif / biotin-A3G peptide binding; higher % means a stronger effect; test concentration not given here; strong numbers were not always called active. inhibition, %, or IC50 in µM where a hit was titrated. hit rate 0.57% among 260,000;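 active = above the screen mean plus three standard deviations and confirmed in dose response; inconclusive = results disagree or hit not tested in dose response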;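 note: Vif residues 1-94 fused to GST binding biotinylated APOBEC3G peptide 110-148; 0% = full assay without inhibitor and 100% = GST in place of GST-Vif; retest series ran down from 100 µM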
FGF22 binding: shifts melting point of recombinant human FGF22; recombinant FGF22 thermal shift, SYPRO orange fluorescence; percent of sucrose octasulfate shift, DMSO zero; calls only at 9.99 µM; hit rate 1.5% among 340,000; Q9HCT0;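 active = melting point raised past a set limit in the mean and every replicate; inconclusive = no clear call; three in four hits are not shown here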
Target sequence (Q9HCT0 whole entry, looked up): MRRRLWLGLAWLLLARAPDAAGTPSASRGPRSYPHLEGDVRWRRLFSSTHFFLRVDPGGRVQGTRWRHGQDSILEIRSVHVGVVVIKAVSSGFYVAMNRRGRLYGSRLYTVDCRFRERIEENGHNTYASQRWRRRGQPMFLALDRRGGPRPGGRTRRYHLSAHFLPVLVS
E coli growth: blocks Escherichia coli growth. OD600, 23 h; active compounds read low. OD600 absorbance (no concentration beside the values). hit rate 0.21% among 330,000. AID 1053175;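 active = OD600 absorbance below the run mean of sample wells minus 3.6 SD, in any replicate, cut at about 0.56 in these data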;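 note: stock transfer was 300 nL into about 60 µL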
HNF4A DNA FP: change in binding of human HNF4 alpha to DNA. P41235. HNF4a-FITC DNA binding, fluorescence polarization, 1 h. activity change, % at 10 µM. hit rate 0.3% among 360,000. AID 1224865; in the data active = activity change above about 30%, passing the limit was not always enough;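 note: controls were the assay level and a saturating level of protein; the project sought stronger binding though the title names inhibitors; some compounds called inactive have numbers as strong as hits; positive values seem to mean higher polarization but the record does not say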
Target sequence (P41235 whole entry, looked up): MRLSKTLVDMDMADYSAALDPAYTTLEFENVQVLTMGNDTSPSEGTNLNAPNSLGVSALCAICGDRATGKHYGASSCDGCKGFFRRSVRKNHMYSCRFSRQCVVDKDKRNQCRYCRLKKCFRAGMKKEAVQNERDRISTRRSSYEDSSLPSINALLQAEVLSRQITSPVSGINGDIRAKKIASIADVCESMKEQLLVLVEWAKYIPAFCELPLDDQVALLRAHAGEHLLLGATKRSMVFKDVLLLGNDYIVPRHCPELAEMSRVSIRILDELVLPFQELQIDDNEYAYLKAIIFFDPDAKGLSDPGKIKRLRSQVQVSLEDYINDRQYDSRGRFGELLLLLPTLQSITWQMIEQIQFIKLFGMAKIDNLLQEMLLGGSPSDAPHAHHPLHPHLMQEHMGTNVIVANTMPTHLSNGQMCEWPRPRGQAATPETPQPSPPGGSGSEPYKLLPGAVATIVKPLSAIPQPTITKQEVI
ALR H2O2 inh: inhibitors of human sulfhydryl oxidase ALR | purified ALR, DTT oxidation, H2O2 HRP-luminol luminescence | inhibition, % (concentration not given with the values) | hit rate 3.8% among 290,000 | P55789;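 active = mean and each replicate at 75% or more; inconclusive = only one of the two met; inactive = neither met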;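 note: stock transfer was 7.5 nL into about 7.5 µL; 0% = neutral wells and 100% = wells with inactivated enzyme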
Target sequence (P55789 whole entry, looked up): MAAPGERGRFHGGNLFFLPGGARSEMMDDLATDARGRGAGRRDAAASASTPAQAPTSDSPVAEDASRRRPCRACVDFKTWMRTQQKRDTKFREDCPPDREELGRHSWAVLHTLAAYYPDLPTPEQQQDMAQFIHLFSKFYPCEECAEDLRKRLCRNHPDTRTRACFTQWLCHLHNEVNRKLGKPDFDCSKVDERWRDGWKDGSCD
Ecoli rRNA inh: selective bacterial rRNA inhibition in E. coli | E. coli WT GFP vs humanized-ribosome RFP mutants, fluorescence, 24 h; active compounds read low; DMSO median 0, no signal -100 | GFP signal change (wild-type ribosome), % (no concentration beside the values) | AID 720706 | hit rate 1.6% among 350,000;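 active = significant combined selectivity score with lowered wild-type GFP, culture density cut under 30%, mutant RFP and density less affected; inactive = any of these conditions unmet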; note: one replicate is shown; some compounds called inactive have numbers as strong as hits
MLL AF4-AF9 inh: blocks AF4 peptide binding to human AF9; P42568; AlphaScreen, biotin-AF4 peptide binding to FLAG-AF9; inhibition, % at 10 µM; hit rate 0.47% among 350,000; AID 651704;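 active = every replicate reaching a set inhibition limit, whatever the replicate mean, cut at about 25% in these data; inconclusive = mean inhibition reaches that limit but some replicates miss it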;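 note: 0% = plate neutral control median and 100% = total signal loss; the record names both 10 and 1 µM as test concentration; the first replicate is given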
Ecoli rRNA inh OD600: recorded beside Ecoli rRNA inh, whose call it bears; OD600 change, %; measured here: OD600 growth;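 optical density of the mix in the first replicate; 0 = DMSO median and -100 = no signal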
Ecoli rRNA inh RFP: second read-out of Ecoli rRNA inh, no call of its own (marks repeat the call); RFP signal change, %; measured here: RFP humanized mutant strains;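 first replicate; 0 = DMSO median and -100 = no signal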
* hit, by the source's call; i = inactive; ? = inconclusive; nt = not tested or not shown; & = joins results of further samples. These rows are one share of the data, so the mix of outcomes need not match the whole.

Sequence of screens: Vif A3G	FGF22 binding	E coli growth	HNF4A DNA FP	ALR H2O2 inh	Ecoli rRNA inh	Ecoli rRNA inh OD600	Ecoli rRNA inh RFP	MLL AF4-AF9 inh
- Nn1c(SCc2ccccc2)nc2ccccc21
  nt	i	0.68	1.3	-9	5	-11	-1.1	3.0
- CC1(C(=O)NS(=O)(=O)c2ccc(F)cc2F)CCN1C(=O)C1(c2ccc(Cl)cc2)CCC1 (stereo not drawn)
  nt	i	nt	-0.7	nt	-12	5	1.1	-1.0
- CCOC(=O)c1c(C)[nH]c(C(=O)CSc2nc(C)cc(C)n2)c1C
  -2%	nt	0.68	0.4	10	nt	nt	nt	nt
- Cc1noc(/C=C/N(C)C)c1S(=O)(=O)N1CCCC(C(=O)NCc2ccccc2Cl)C1 (stereo not drawn)
  6%	nt	0.67	1.1	nt	nt	nt	nt	nt
- O=c1[nH]c(CN2CCOCC2)nc2scc(-c3ccccc3)c12
  6%	i	0.74	-9.4	-52	15	4	2.3	0.0
- O=C(Nc1nnc(SCc2cccc(F)c2)s1)c1ccco1
  -3%	i	0.71	-5.0	-1	-1	7	0.9	-0.4
- Nc1nnc(/C=C/c2ccccc2)s1
  4%	i	nt	0.8	-12	2	1	2.5	-0.8
- CCN(CCO)c1ncnc2c1sc1nc(CC(C)C)c3c(c12)CC(C)(C)OC3
  -22%	nt	0.66	0.5	1	nt	nt	nt	nt
- CCOc1ccccc1C(=O)NC(C(=O)OCn1nnc2ccccc2c1=O)C(C)C (stereo not drawn)
  -8%	i	nt	0.0	nt	24	7	1.5	-1.4
- COc1ccccc1CCC(=O)OCC(=O)Nc1ccc(C)c(S(=O)(=O)N2CCCCC2)c1
  5%	i	0.7	0.8	-2	0	-1	-0.5	-30
- NC(=O)c1ccc(-c2nnc(Nc3ccc(S(N)(=O)=O)cc3)c3ccccc23)cc1
  -7%	i	0.71	9.9	-3	-18	-9	-4.5	-1.9
- O=C(COC(=O)c1ccc2c(c1)OCCO2)Nc1ccc(F)cc1F
  -14%	i	0.71	0.8	2	1	-7	-0.3	-3.7
- C[C@H](CO)N1C[C@H](C)[C@@H](CN(C)C(=O)c2ccc3ccn(C)c3c2)OCc2cn(nn2)CCCC1=O
  1%	i	nt	-0.3	nt	2&0	8&5	-1.8&-1.3	0.8&-1.9
- CC(=O)Nc1cc([N+](=O)[O-])ccc1N1CCOCC1
  5%	i	0.68	-1.1	-9	11	5	11	-3.5
- CCOC(=O)c1c(-c2cccc(C)c2)csc1NC(=O)C1CC=CCC1C(=O)O (stereo not drawn)
  0%	nt	0.76	-1.6	98*	nt	nt	nt	nt
- COc1ccc(C(CNC(=O)c2oc3ccc(Cl)cc3c2C)N2CCCCC2)cc1 (stereo not drawn)
  nt	i	0.7	1.8	-6	-52	-82	-17	8.3
- CC(C)(C)NNC(=S)Nc1cccc(C(F)(F)F)c1
  -6%	i	0.65	7.7	4	nt	nt	nt	-0.3
- CC(=O)Nc1cc(NC(C)=O)cc(C(=O)OC(C)C(=O)Nc2ccc(S(=O)(=O)N3CCCC3)cc2)c1 (stereo not drawn)
  2%	i	0.67	1.2	-15	-13	-13	2.0	4.8
- Cc1cc(C)nc(SCC(=O)Nc2ncc(Cc3ccc(Cl)c(Cl)c3)s2)n1
  7%	i	nt	-1.8	-6	8	9	0.0	3.1
- O=C(Nc1ccccc1F)N[C@@H]1CC[C@@H](CCNS(=O)(=O)c2ccccc2)O[C@@H]1CO
  nt	i	nt	nt	nt	-2	-3	-1.6	-1.0

With a hit mark in ALR H2O2 inh (from the list above):
Sequence of screens: Vif A3G	FGF22 binding	E coli growth	HNF4A DNA FP	ALR H2O2 inh	Ecoli rRNA inh	Ecoli rRNA inh OD600	Ecoli rRNA inh RFP	MLL AF4-AF9 inh
- CCOC(=O)c1c(-c2cccc(C)c2)csc1NC(=O)C1CC=CCC1C(=O)O (stereo not drawn)
  0%	nt	0.76	-1.6	98*	nt	nt	nt	nt

(further entries)
Sequence of screens: Vif A3G	FGF22 binding	E coli growth	HNF4A DNA FP	ALR H2O2 inh	Ecoli rRNA inh	Ecoli rRNA inh OD600	Ecoli rRNA inh RFP	MLL AF4-AF9 inh
- CCN1CCN(CCC(=O)Nc2cc(C)ccc2C)CC1
  -7%	i	0.7	1.9	-23	2	4	-2.1	3.7
- CC(=O)Oc1ccc2c(c1)c(C(C)=O)c(C)n2C
  10%	nt	0.67	-42	-30	nt	nt	nt	nt
- COc1ccc(S(=O)(=O)N(C)C[C@H]2Oc3ccc(NC(=O)C4CC4)cc3CC(=O)N([C@H](C)CO)C[C@H]2C)cc1
  nt	i	nt	nt	nt	-2	-5	-1.6	-7.7
- Cc1ccc(C(=O)N/C(=C\c2ccc(-c3cc(Cl)ccc3Cl)o2)C(=O)NCc2cccnc2)cc1
  -8%	nt	0.78	-0.1	-10	nt	nt	nt	nt
- c1ccc(-c2nc(NCc3cccnc3)c3ccccc3n2)cc1
  -9%	i	0.66	-0.5	67	nt	nt	nt	5.5
- COc1ccc(NC(=O)c2ccc3nc(C)sc3c2)cc1
  -7%	i	0.68	5.1	-1	-8	-5	-1.9	-1.4
- O=C(NCCF)[C@H]1C[C@@H]1[C@H](NP(=O)(c1ccccc1)c1ccccc1)c1ccccc1
  ?	i	nt	-0.4	1	1	10	-3.3	-2.1
- C/C=C/c1ccc([C@@H]2[C@H](CO)N(C(=O)Cc3cccnc3)[C@H]2CNC(C)=O)cc1
  nt	i	nt	nt	nt	-1	-4	-0.9	2.2
- CCN1C(=O)/C(=C\N2CCN(C)CC2)SC1=S
  -2%	nt	nt	2.2	-1	nt	nt	nt	nt
- Cc1cc(F)ccc1NC(=O)C1CSC2(C)CCC(=O)N12 (stereo not drawn)
  1%	i	0.71	3.9	-13	13	6	-1.3	-0.6
- COc1cccc2cc(C(=O)Nc3ccc(S(=O)(=O)NCC4CCCO4)cc3)c(=O)oc12 (stereo not drawn)
  ?	i	0.69	-6.4	17	7	1	-7.7	-19
- Cc1cc(N2CCCC2=O)ccc1S(=O)(=O)Nc1c(C)nn(C)c1C
  6%	i	0.7	1.4	-14	9	14	3.2	-3.7
- OCCN=C1CCCc2c1[nH]c1ccc(Cl)cc21
  -1%	i	0.6	-0.2	18	1	-7	7.3	-2.6
- CCOC(=O)NCc1cc(-c2nn(C)c(=O)c3ccccc23)ccc1C
  -4%	nt	0.79	-1.6	-4	nt	nt	nt	nt
- CCOC(=O)c1c(S(=O)(=O)N2c3ccccc3CC2C)c(C)n(C)c1C (stereo not drawn)
  2%	i	0.72	1.1	-2	2	-6	1.6	8.8
- Cc1ccc2nc(CCc3nc4ccc(C)cc4o3)oc2c1
  -1%	nt	0.69	1.6	nt	nt	nt	nt	nt
- O=C(NCC[C@H]1CC[C@H](NC(=O)c2cccnc2)[C@@H](CO)O1)Nc1ccc(Cl)cc1
  nt	i	nt	nt	nt	-1&-13	8&-12	-1.4&5.4	10
- CCCC(=O)N1CC2(CCN(C(=O)C3CCC3)CC2)c2c(n(C)c3cc(OC)ccc23)[C@@H]1CO
  nt	i	nt	nt	nt	-5	-3	-0.6	1.1
- C/C(=N\Nc1cc(N2CCOCC2)nc(C)n1)c1cccc([N+](=O)[O-])c1
  6%	i	nt	2.1	-1	-1	4	-3.8	4.0
- CC(=O)c1ccc(N2CCN(S(=O)(=O)c3ccc4c(c3)CC(=O)N4C)CC2)cc1
  nt	i	0.7	-0.7	-4	-1	6	-0.9	-14

Sequence of screens: Vif A3G	FGF22 binding	E coli growth	HNF4A DNA FP	ALR H2O2 inh	Ecoli rRNA inh	Ecoli rRNA inh OD600	Ecoli rRNA inh RFP	MLL AF4-AF9 inh
- Cc1cnc(C(=O)N2CCN(S(=O)(=O)c3cc(C(F)(F)F)cc(C(F)(F)F)c3)CC2)cn1
  nt	i	0.68	3.7	nt	-11	-13	-3.4	-7.9
- O=C(CCNS(=O)(=O)c1ccc(Cl)cc1)OCC(=O)c1ccc[nH]1
  -4%	i	0.71	1.6	0	-2	3	8.4	-4.8
- COc1ccc(/C=N/NC(=O)c2ccc(COc3ccccc3Cl)o2)cc1
  0%	nt	nt	-0.3	-5	4	4	3.7	nt
- Cc1ccccc1Cn1nc(C)c(NC(=O)c2cc(CC(C)C)on2)c1C
  -2%	i	0.64	3.8	nt	5	10	3.9	-3.3
- CC(C)C(=O)NN(C(=O)c1ccccc1)c1ccccc1
  -2%	i	0.67	-0.6	-20	8	9	5.6	-2.2
- CC(=O)NC(c1ccc(F)c(F)c1)c1nc(-c2ccccc2)cs1 (stereo not drawn)
  nt	i	nt	8.4	nt	-1	-8	2.1	-2.2
- O=C1CCCC2=C1C(c1ccccc1)C1C(=O)c3ccccc3C1=N2 (stereo not drawn)
  13%	nt	0.68	4.9	29	nt	nt	nt	nt
- CC(C)C(C)NC(=O)COn1nnc2ccc(S(=O)(=O)N3CCOCC3)cc21 (stereo not drawn)
  -2%	i	0.67	1.3	0	-2	9	-1.9	-1.1
- COC(=O)COc1ccc(S(=O)(=O)Nc2ccc3c(c2)OCO3)cc1
  14%	i	0.69	3.1	-1	3	-9	-0.8	5.7
- O=C(Cc1ccccc1)N1CCN=C1SCc1ccc([N+](=O)[O-])cc1
  nt	i	0.7	1.6	nt	-7	-1	3.2	3.3
- C[C@@H]1CCCCO[C@@H](CN(C)S(=O)(=O)c2ccc(F)cc2)[C@@H](C)CN([C@H](C)CO)C(=O)c2cc(NS(=O)(=O)c3cccs3)ccc2O1
  nt	i	nt	nt	nt	0	-2	-0.8	-3.4
- Cc1cc(C(=O)O)c(C)n1-c1ccccc1
  0%	nt	0.7	2.5	23	nt	nt	nt	nt
- CCN(Cc1ccccc1)C(=O)CCc1nnc(CCCc2ccccc2)o1
  nt	i	0.69	1.7	5	-18	-21	-2.8	-5.8
- CC(=O)N(C)C[C@@H]1Oc2cc(C#CCC3CCCC3)ccc2S(=O)(=O)N([C@H](C)CO)C[C@H]1C
  nt	i	nt	nt	nt	-1	-31	11	6.4
- COC(=O)c1cc(OC)c(OC)cc1NC(=O)c1cc(OC)cc(OC)c1
  -7%	i	0.72	-2.7	-9	-4	-3	0.9	-0.9
- Cc1ccc(Cc2c(-c3cccc(Cl)c3)nc3c4ccccc4ccn23)cc1
  nt	i	nt	4.8	nt	40	29	20	-1.3
- CCCCNC(=O)c1cn(CC)c2cc(N3CCN(C(=O)c4ccco4)CC3)c(F)cc2c1=O
  6%	i	0.46*	-3.0	2	-60	-80	-30	-5.3
- CCOC(=O)c1c(C)[nH]c(C(=O)/C(C#N)=C/c2ccc(OC(F)F)c(OC)c2)c1C
  17%	i	0.71	10	30	nt	nt	nt	-0.4
- CCC1(C)SC(N)=NN1C(C)=O (stereo not drawn)
  1%	nt	0.68	-0.5	1	nt	nt	nt	-0.4
- O=C1CC(C(=O)N2CCN(S(=O)(=O)c3cccc(F)c3)CC2)CN1Cc1ccccc1Cl (stereo not drawn)
  0%	i	0.7	1.9	0	1	-6	1.3	2.7

Sequence of screens: Vif A3G	FGF22 binding	E coli growth	HNF4A DNA FP	ALR H2O2 inh	Ecoli rRNA inh	Ecoli rRNA inh OD600	Ecoli rRNA inh RFP	MLL AF4-AF9 inh
- Cc1ccc(NC(=O)CCNS(=O)(=O)c2ccc3[nH]c(=O)oc3c2)cc1
  1%	i	0.68	1.0	-3	7	3	-1.6	0.0
- CCCOc1ccc(NC(=O)CC2C(=O)N(C)C(=S)N2Cc2cccs2)cc1 (stereo not drawn)
  nt	nt	0.69	-3.9	1	nt	nt	nt	nt
- O=[N+]([O-])c1cnccc1Nc1ccc(Cl)cc1
  13%	i	0.65	3.9	3	4	-5	-2.7	2.7
- CCCc1cc(=O)[nH]c(SCC(=O)N2CCN(c3ccc(F)cc3)CC2)n1
  4%	nt	0.72	-0.2	-1	nt	nt	nt	nt
